Sfp inh: qHTS Assay for Inhibitors of Bacillus subtilis Sfp phosphopantetheinyl transferase (PPTase) | 4'-phosphopantetheinyl transferase ffp (Bacillus subtilis), Q9F4F7 | Biochemical Sfp PPTase activity, qHTS | Potency, µM, for inactives: max response, negative = inhibition, most hits filed as inhibitors | 310,000 tested, 3.5% active | AID 1490, 2009; active = well fitted inhibition curve with a large enough effect; inconclusive = small, poorly fitted or top-dose-only effect, or another doubt; inactive = no such curve, though single readings can be large or run the other way;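 note: the enzyme is Sfp with the accession as filed and its product quenches rhodamine fluorescence; potency is the fitted concentration of half-maximal effect; 0% = enzyme reaction without inhibitor and -100% = no enzyme wells; top concentration of the series not given in the record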
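Compounds were incubated with enzyme (final 15 nM) for 15 min at room temperature before substrate addition started the reaction. Fluorescence at 525 nm excitation, 598 nm emission was recorded immediately and after 30 minutes.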
PINK1 modulator: A Quantitative High throughput Screen to Identify Chemical Modulators of PINK1 Expression. PINK1 immunofluorescence, high-content cytometry, 24 h. Potency, µM (titrated, usually from 76.6 µM), for inactives: top-dose activation (PINK1 increase), hits mostly activators. 410,000 tested, 0.2% active; active = well fitted activation curve with a large enough effect; inconclusive = small, poorly fitted or top-dose-only effect; inactive = flat fitted curve, though single readings scatter; cell line not stated here;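 note: potency is the fitted concentration of half-maximal effect; % of control where 0% means no effect; nearly all actives have a fitted effect of over 65% in size; a mitochondrial uncoupler was the plate control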
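PINK1 protein, normally rapidly degraded, was detected by immunofluorescence after 24 hour compound treatment of a stable cell line. Titration data (5 concentrations) came from laser-scanning cytometry, with CCCP-treated wells as controls.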
gsp agonist: qHTS for Agonist of gsp, the Etiologic Mutation Responsible for Fibrous Dysplasia/McCune-Albright Syndrome: qHTS; gsp mutant cells, cAMP HTRF, 30 min; control for the full effect not named in the record; Potency, µM (highest dose often 76.9 µM), inactives show top-dose activation (cAMP increase), actives largely listed as activators; 340,000 tested, 0.13% active; AID 624287, 2012; active = well fitted activation curve with a large enough effect; inconclusive = small, poorly fitted or top-dose-only effect, or another doubt; inactive = no such curve, though single readings can be large or run the other way; cell line not stated here;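 note: phosphodiesterase inhibitor Ro 20-1724 added with compounds to block cAMP breakdown; potency is the fitted concentration of half-maximal effect; nearly all actives have a fitted effect of over 60% in size; about a fifth of the inactives were tested at one dose only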
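Cells in DMEM/10% FBS with G418 were pretreated with compounds in DMSO plus […] (300 uM stock) for 30 min at 37C. cAMP was measured by HTRF (cAMP-d2 plus anti-cAMP antibody-K) after 30 min at room temperature.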
Menin MLL FP FL: qHTS Assay for Inhibitors Targeting the Menin-MLL Interaction in MLL Related Leukemias: Competition With Fluorescein Labeled MLL-derived Peptide. 290,000 tested, under 10 active. FP activity change, % at 61.4 µM. Fluorescence polarization, fluorescein-MLL peptide displacement from menin. AID 1766, 2009; inconclusive = falling polarisation curve, or a change in total fluorescence; inactive = total fluorescence flat and polarisation flat or rising; no compound was filed as active; the % refers to the polarisation; negative = inhibition;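 note: % of control where 0% means no effect; inhibitors lower the polarisation; unlabelled MLL peptide was the positive control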
ClpP mod: qHTS Assay for Activators of ClpP | ATP-dependent Clp protease proteolytic subunit (Bacillus subtilis (strain 168)), P80244 | purified B. subtilis ClpP, FRET peptide cleavage, 20 min | Potency, µM (highest dose often 57.5 µM), without a hit: top-dose activity change, negative = active | 340,000 tested, 1.9% active; active = well fitted falling curve with a large enough effect; inconclusive = small, poorly fitted or top-dose-only effect; inactive = no such curve, though single readings can be large or run the other way; note: potency is the fitted concentration of half-maximal effect; the source files actives as falling curves though it sought activators and does not explain the sign; nearly all actives have a fitted effect of over 65% in size; many hits overshoot -100%
Target sequence (P80244 whole entry, looked up): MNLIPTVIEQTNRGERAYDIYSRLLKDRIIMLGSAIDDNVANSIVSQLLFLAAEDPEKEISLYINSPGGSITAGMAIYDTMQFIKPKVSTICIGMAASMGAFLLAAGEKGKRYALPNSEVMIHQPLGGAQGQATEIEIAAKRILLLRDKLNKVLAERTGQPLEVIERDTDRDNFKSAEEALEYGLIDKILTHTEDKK
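FRET quenching reversal measured ClpP activation: 10 microg/mL B. subtilis ClpP at pH 8 with the FRET-FV decapeptide, read at 430 nm after 320 nm excitation. The 20-min minus 0-min signal was scaled between DMSO/no-enzyme wells and ADEP (5.8 microM final).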
gsp antagonist: qHTS for Antagonists of gsp, the Etiologic Mutation Responsible for Fibrous Dysplasia/McCune-Albright Syndrome: qHTS; AID 624288, 2012; 340,000 tested, 0.4% active; Potency, µM (highest dose often 76.9 µM), inactives show at the top dose activity change, negative = inhibition, most hits filed as inhibitors; gsp-mutant cells, cAMP HTRF, 30 min; control for the full effect not named in the record; active = falling curve of any shape with a large fitted effect; inconclusive = falling curve, mostly with a smaller effect; inactive = flat or rising curve; cell line not stated here;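 note: intracellular cAMP measured with PDE inhibitor Ro 20-1724 present during compound exposure; potency is the fitted concentration of half-maximal effect; % is set by controls: 0 for no effect and ±100 for the full control effect; nearly all actives have a fitted effect of over 65% in size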
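HTRF cAMP measurement after 30 min RT detection following 30 min, 37C compound treatment alongside […] (added as 300 uM solution) in G418-selected cells seeded at 2000/well and grown 16–24 h.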
D2 agonist: Beta-Arrestin HTS for Positive Allosteric Modulators of the Human D2 Dopamine Receptor: Agonists. D(2) dopamine receptor (Homo sapiens), P14416. DiscoveRx PathHunter D2 beta-arrestin, luminescence, 90 min; 100% = 57 uM dopamine signal. activation, % (no concentration beside the values). 360,000 tested, 0.084% active. AID 624465, 2012; in the data active = activation above about 40%; inconclusive = about 15% to 40%; inactive = below about 15%; note: compound concentration not given in the record; the text of the record calls up to 30% inactive
Target sequence (P14416 whole entry, looked up): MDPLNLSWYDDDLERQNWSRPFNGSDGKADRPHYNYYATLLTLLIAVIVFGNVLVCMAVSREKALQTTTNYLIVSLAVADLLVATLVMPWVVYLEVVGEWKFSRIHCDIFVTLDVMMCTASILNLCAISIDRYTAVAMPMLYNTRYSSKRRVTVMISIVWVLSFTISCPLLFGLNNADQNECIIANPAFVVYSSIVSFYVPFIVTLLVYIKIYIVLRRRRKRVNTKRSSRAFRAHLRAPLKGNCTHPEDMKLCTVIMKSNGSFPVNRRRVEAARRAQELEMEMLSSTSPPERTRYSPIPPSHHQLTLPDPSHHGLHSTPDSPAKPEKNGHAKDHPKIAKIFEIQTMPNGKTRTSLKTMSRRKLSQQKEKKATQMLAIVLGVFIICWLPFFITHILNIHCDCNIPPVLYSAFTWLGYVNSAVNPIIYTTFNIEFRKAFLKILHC
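Agonist mode: compounds alone added to overnight-plated D2 PathHunter cells for 90 min at 37 C, with 57 uM final dopamine (EC100) defining full response. Beta-arrestin recruitment detected by chemiluminescent reagent, read after 1 h at ambient temperature.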
* marks the source's active call; other numbers are inactive results; ? = inconclusive; / = not tested or not shown; & = joins results of further samples; [ ] = dose if it differs, or a comment.

SMILES	Sfp inh	PINK1 modulator	gsp agonist	Menin MLL FP FL	ClpP mod	gsp antagonist	D2 agonist
O=C(c1cc(S(=O)(=O)N2CCOCC2)ccc1F)N1CCc2ccccc21	/	-0.8%	-101%[inhibitor]	/	-3.4%	1%	8.1
CC(C)(C)NC(=O)C(=O)NN=C1CCCCCCCCCCC1	79µM*	0.3%	2%	-0.8	/	8%	10.0
Cc1cccc(Cn2cnc3c(nnn3Cc3ccc(Cl)cc3)c2=O)c1	19%	3.4%[38.3 µM]	-4%	0.4	1.4%	5%	-3.0
CCOC(=O)c1sc2ccccc2c1OC(=O)c1ccccc1OC	11%	0.7%	3%	2.1	12%	-11%	-5.7
O=C(NCCO)Nc1ccc2nsnc2c1	11%	-0.7%	-34%[inhibitor]	3.0	4.1%	3%	0.3
CSCCC1NC(=O)N(CC(=O)Nc2c(C(C)C)cccc2C(C)C)C1=O (configuration not stated)	-5%	-0.6%	24%	0.3	/	-6%	0.0
COc1ccc(CC(N)c2csc(Nc3cnccn3)n2)cc1 (configuration not stated)	/	5.8%	/	/	-1.0%	/	-3.8
CNC(=O)c1c(NC(=O)C2=COCCO2)sc2c1CCCC2	-1%	1.4%	-7%[15.4 µM]	/	-9.7%	-11%	0.7
CCOC(=O)CCP(=O)(O)C(O)c1ccc(OC)cc1 (configuration not stated)	10%	-1.7%	?	-0.6	-2.1%	9%	-2.1
COc1ccc(C(=O)OCC(=O)NCC2CCCO2)cc1S(=O)(=O)N1CCCc2ccccc21 (configuration not stated)	22%	3.2%	-14%[15.4 µM]	3.3	/	-12%	-0.4
CCCCNC(=O)Nc1ncn[nH]1	6%	-0.9%	?	5.5	1.4%	9%	0.4
Cc1ccc(SC(C)C(=O)NCC(C)C)cc1 (configuration not stated)	20%	/	-7%	0.9	0.2%	-3%	-1.9
COc1ccc(OCC(=O)Nc2ccc(S(=O)(=O)N3CCOCC3)cc2)cc1	11%	-0.2%	0%	4.7	-0.4%	8%	-1.7
COc1ccc(CCCc2nnc(SCC(=O)N/N=C\c3ccc(O)c(OC)c3)o2)cc1C	1%	2.8%	-3%	1.9	-5.4%	-17%	-1.9
CCN1N=C(c2ccccc2)CCC1=O	6%	-0.8%	-58%[inhibitor]	-6.0	/	-2%	-1.9
COC(=O)N1CCC2(CC1)CN(c1ccccn1)C2	17%	-0.2%	/	0.5	/	/	/
CCOC(OCC)c1cn(Cc2ccc(C(=O)c3ccccc3)cc2)nn1	10%	7.3%	?	-2.5	-0.3%	-1%	-2.8
Cc1cccc(CNc2ccnc(-c3ccc(N(C)C)cc3)n2)c1	40µM*	?	/	-4.1	/	/	/
O=C(CSc1nc(=O)n2ccccc2n1)NC1CCCCC1	/	0.2%	35%[15.4 µM]	/	1.5%	16%	-1.9
O=S(=O)(c1ccc(C2CCCCC2)cc1)N1CCCC1	-3%	-0.9%	-9%	1.4	-1.4%	3%	-1.8

3 entries out of the list, arranged by heavy-atom count, lowest first:
SMILES	Sfp inh	PINK1 modulator	gsp agonist	Menin MLL FP FL	ClpP mod	gsp antagonist	D2 agonist
Cc1ccc(SC(C)C(=O)NCC(C)C)cc1 (configuration not stated)	20%	/	-7%	0.9	0.2%	-3%	-1.9
COC(=O)N1CCC2(CC1)CN(c1ccccn1)C2	17%	-0.2%	/	0.5	/	/	/
O=C(c1cc(S(=O)(=O)N2CCOCC2)ccc1F)N1CCc2ccccc21	/	-0.8%	-101%[inhibitor]	/	-3.4%	1%	8.1

Other compounds.
SMILES	Sfp inh	PINK1 modulator	gsp agonist	Menin MLL FP FL	ClpP mod	gsp antagonist	D2 agonist
CCCNCc1cc(OCC)c(OCC(=O)Nc2ccccc2)cc1Br	4%	2.5%	-7%	-2.5	1.7%	4%	-1.6
CCN(CC)S(=O)(=O)c1ccc2nc(NC(=O)c3ccco3)sc2c1	8%	0.1%	-7%	1.6	-20%	-23%	-1.9
CCc1ccc(S(=O)(=O)/N=C2\C=C(Nc3ccc(C(=O)O)cc3)C(=O)c3ccccc32)cc1	-22%	-0.2%	-11%	-13	0.3%	-8%	13
COC(=O)c1ccc(C(=O)N2CCCC(Nc3ccc(C(C)C)cc3)C2)nc1 (configuration not stated)	2%	-0.5%	?	/	0.6%	-6%	-2.0
COc1ccc(N(C)S(=O)(=O)c2cccc(C(=O)OCC(=O)N3CC(C)CC(C)C3)c2)cc1 (configuration not stated)	/	-0.1%	10%[15.4 µM]	/	-2.2%	-30%	1.0
O=C(Nc1cccc2ccccc12)/C(=C/c1ccc([N+](=O)[O-])cc1)NC(=O)c1ccccc1	6%	-3.6%	-55%[inhibitor]	5.6	-0.5%	3%	1.0
CC(C)(C)OC(=O)NCC1CCC(C(=O)NC[C@H](CC(=O)O)c2ccc(Cl)cc2)CC1 (some centres not stated)	15%	1.2%	5%	-9.4	/	-1%	-6.1
CCOC(=O)C1(CCOC)CCN(Cc2nc(C(C)C)cs2)CC1	26%	0.7%	-4%	-1.6	/	4%	0.5
Cc1sc2nc(C)n(/N=C/N(C)C)c(=O)c2c1C	6%	-1.5%	4%[15.4 µM]	-3.8	/	5%	-2.2
COc1ccc(-n2c(=O)[nH]cc(C(=O)N3CCCc4ccccc43)c2=O)cc1	0%	0.1%	?	-7.0	0.6%	8%	-1.4
Cc1c(C)n(Cc2ccccc2)c2ccc(C(=O)NCCN3CCOCC3)cc12	0%	-0.2%	-18%	2.9	-22%	9%	-1.6
COc1ccccc1/C=C(/CC(=O)NCc1ccccc1)c1nc2ccccc2s1	15%	0.6%	0%	12	-12%	-22%	-0.7
Cc1ccccc1C(=O)NNC(=O)c1ccoc1C	14%	29%[38.3 µM]	23%	1.4	-1.4%	5%	-0.1
CSCC[C@H](NC(=O)N1CCn2c1nc1ccccc12)C(=O)NCc1ccco1	-14%	1.3%	?	-0.3	-1.2%	17%	11
N#CCc1ccc(OC(=O)c2cccnc2Cl)cc1	/	-0.9%	-4%	/	/	-13%	-3.5
COc1ccccc1CN1CCNC(=O)C1CC(=O)NCC1CCOCC1 (configuration not stated)	9%	-1.0%	5%	/	-1.2%	-13%	-3.7
COc1ccc(CNC(=O)C(C)OC(=O)CCN2C(=O)C3CC=CCC3C2=O)cc1 (configuration not stated)	/	0.4%	1%	/	0.2%	3%	-2.7
O=C(Oc1cccc([N+](=O)[O-])c1)N1CCCCC1	7%	0.6%	-33%[inhibitor]	-0.9	3.2%	13%	-6.1
Cc1cc(C(=O)OCC(=O)N2CCOCC2)ccc1[N+](=O)[O-]	8%	-0.7%	-3%[15.4 µM]	-1.6	/	/	-3.1
O=C(Nc1nnc(-c2ccco2)o1)c1ccc2ccccc2c1	13%	0.6%	-28%	1.8	0.4%	12%	8.7
O=S(=O)(N/N=C\C=C\c1ccccc1)c1ccc(Br)cc1	30%[activator]	5.6%	-2%	-1.1	1.1%	-8%	5.1
CC(=O)Nc1ccc(NC(=O)C(C)OC(=O)CSCc2cccc(Cl)c2)cc1 (configuration not stated)	/	-1.2%	-3%	/	1.2%	0%	-0.9
O=C(Nc1ccc(F)cc1)c1nc(S(=O)(=O)Cc2ccccc2)ncc1Cl	?	-1.0%	-37%[inhibitor]	/	1.3%	40µM*	-10
COC(=O)c1c(NC(=O)CSc2ncnc3[nH]ncc23)sc2c1CCC2	-11%	2.1%	-3%[15.4 µM]	0.8	/	/	-1.3
CC(=O)Nc1c(Cl)cc(Cl)c2c1Cc1cc(Cl)ccc1-2	/	7.4%	-39%	/	/	3%	-1.5
O=C(C1CCCCC1)N1CCc2[nH]c3ccc(F)cc3c2C1	8%	2.6%	-39%	-3.0	-6.0%	-5%	-1.5
CC(C)NC(=O)N1CC[C@@]2(CCCN(C(=O)Oc3ccccc3)C2)C1	-2%	0.3%	/	0.4	/	/	/
C[C@H](CO)NC(=O)[C@H](C)[C@H]1C[C@]1(C)[C@H](NC(=O)OCc1ccccc1)c1ccccc1	26%&15%	-0.1%	/	3.9&-0.9	0.3%	6%	-1.3
Nc1c(N2CCCC2)c2ccccc2oc1=O	-4%	3.7%	-32%[inhibitor]	2.2	/	-10%	-4.3
COCCCn1c(-c2ccccc2)nc2ccccc2c1=O	23%	0.6%	-4%	3.9	-2.1%	-1%	-9.2
COc1ccc(OCc2cc(C(=O)NC(C)Cc3cnccn3)no2)c(Cl)c1 (configuration not stated)	18%	5.7%	23%	-5.3	0.2%	1%	-4.4
CC(C)n1c(CN(C)c2ccccc2)nc2ccccc21	1%	0.7%	0%[15.4 µM]	-0.4	0.8%	-7%	1.5
CC(C)C1N=C2c3ccccc3N=C(SCC#N)N2C1=O (configuration not stated)	12%	-0.2%	?	0.3	13µM*	25%	-1.6
CCCCCCc1c(C)c2ccc(OCC(=O)N3CCC[C@H]3C(=O)O)c(C)c2oc1=O	-1%	-0.4%	/	0.3	4.7%	-7%	-3.7
CCCN(CC(=O)Nc1ccccc1C)C(=O)CCNC(=O)c1ccccc1Cl	/	-1.1%	-11%[15.4 µM]	/	/	3%	-4.9
Cc1ccc2nc(-c3ccncc3)c(NC3CCCC3)n2c1	7%	-1.4%	-23%	0.3	-11%	?	-3.6
O=C1c2ccccc2NC(c2ccc(Cl)cc2Cl)N1O (configuration not stated)	2%	2.3%	-47%[inhibitor]	0.6	2.5%	-9%	-2.3
CC(=O)c1ccccc1NC(=O)COC(=O)/C=C/c1ccc(OC(F)F)cc1	/	?	3%	/	4.7%	5%	0.0
CC(=O)N1CCSc2ccc(S(=O)(=O)NCCc3ccc(Cl)cc3)cc21	5%	-0.4%	2%	/	0.1%	-26%	-0.7
Cc1ccc(S(=O)(=O)NCc2ccc(C(=O)N3CCN(c4ccc([N+](=O)[O-])cc4)CC3)cc2)cc1	5%	-0.2%	?	/	1.1%	?	15

Source: PubChem BioAssay
